Screening results as filed in PubChem.
Mtb bLac sens: beta-lactam sensitization of Mtb H37Rv; M. tuberculosis H37Rv growth with meropenem, percent inhibition; hits of this screen are not shown here; inhibition, % at 25 µM; 330,000 compounds, 0.27% hits; AID 434955;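 active means about 74% or more and at least 40 points above the plate without the antibiotic, then above 30% in a dose series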;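 further: growth measured after seven days incubation then overnight dye step; 0% = bacteria only wells and 100% = bacteria with antibiotic; twin plates without the antibiotic show which effects depend on it; some results filed as inactive read as strong as hits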
Arbovirus anti: antivirals against arbovirus infection. 200,000 compounds, 0.37% hits. arbovirus infection cell-based antiviral screen. AID 1251. inhibition, % at 10 µM;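 active means inhibition from about 30%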;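 further: bluetongue infection of BSR cells; cell survival read as ATP light after 72 h; 0% = infected wells without compound and 100% = uninfected wells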
YopH inh: blocks Yersinia enterocolitica YopH tyrosine phosphatase; fluorescence Ex485/Em525; inhibition, %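 (about 10 µM by stock and volumes)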; 140,000 compounds, 0.16% hits;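 active means inhibition of 50% or more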;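 further: controls were vehicle for no effect and minimum signal wells for full effect; inactives centre near -20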
RecA intein inh: Mtb RecA intein splicing inhibition; cell-free RecA intein splicing, fluorescence; inhibition, %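 (about 9 µM by stock and volumes)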; 290,000 compounds, 0.75% hits; AID 2221; in the data active means inhibition above about 30%;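 further: 0% = vehicle wells and 100% = reference inhibitor control wells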
Target sequence (P9WHJ3 whole entry, looked up): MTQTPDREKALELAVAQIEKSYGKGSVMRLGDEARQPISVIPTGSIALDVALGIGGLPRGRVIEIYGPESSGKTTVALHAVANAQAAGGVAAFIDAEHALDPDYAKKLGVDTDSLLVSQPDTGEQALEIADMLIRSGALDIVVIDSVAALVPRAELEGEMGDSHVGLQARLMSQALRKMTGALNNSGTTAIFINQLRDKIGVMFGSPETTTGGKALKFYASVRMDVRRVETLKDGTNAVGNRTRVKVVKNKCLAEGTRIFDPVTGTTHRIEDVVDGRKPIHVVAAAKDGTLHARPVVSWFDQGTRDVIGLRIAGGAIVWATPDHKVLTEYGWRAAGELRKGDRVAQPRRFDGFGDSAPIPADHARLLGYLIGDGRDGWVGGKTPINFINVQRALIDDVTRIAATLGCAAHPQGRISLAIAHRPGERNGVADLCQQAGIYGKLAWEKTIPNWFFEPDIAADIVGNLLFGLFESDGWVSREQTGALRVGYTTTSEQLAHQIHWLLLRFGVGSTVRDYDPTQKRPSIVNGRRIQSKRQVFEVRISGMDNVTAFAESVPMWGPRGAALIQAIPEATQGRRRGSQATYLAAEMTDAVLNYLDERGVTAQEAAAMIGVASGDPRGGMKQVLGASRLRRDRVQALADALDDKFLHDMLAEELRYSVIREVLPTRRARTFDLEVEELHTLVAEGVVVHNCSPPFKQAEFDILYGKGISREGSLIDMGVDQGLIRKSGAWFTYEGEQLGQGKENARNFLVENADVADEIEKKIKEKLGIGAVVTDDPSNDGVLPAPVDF
Mtb H37Rv: M. tuberculosis H37Rv growth inhibitors, H37Rv strain (AID 1626). M. tuberculosis H37Rv growth inhibition; higher % means a stronger effect. inhibition, % at 10 µM, or IC50 in µM where a hit was titrated. 220,000 compounds, 0.95% hits;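 active means confirmed in a dose series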;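 further: bacteria incubated seven days before Alamar blue readout; 0% = bacteria only wells and 100% = bacteria with antibiotic wells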
Arbovirus anti repeat: recorded beside Arbovirus anti, whose call it bears; inhibition, %; measured here: 10K subset replicate screen; many hits read low in the repeat;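 first of two repeat runs on a subset; 0% = infected and 100% = uninfected wells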
* marks the source's active call; other numbers are inactive results; / = not tested or not shown.

SMILES	Mtb bLac sens	Arbovirus anti	YopH inh	RecA intein inh	Mtb H37Rv	others
Cc1ccc(-c2nc(N)s[n+]2-c2ccccc2)cc1	2	2	11	2.5	15%
CCOCCCNC(=O)c1[nH]c(C)c(C(C)=O)c1C	-5	1	-25	2.1	-10%
CCCCC1(CN2CCCC2=O)C(=O)NC(=O)NC1=O	-7	7	-110	/	-4%
CN(C)CCN(Cc1ccco1)S(=O)(=O)c1ccc(-c2ccc(=O)[nH]n2)s1	4	/	/	1.6	/
Cc1cc(C)n(-c2c(C)[nH]c3ccccc23)n1	-1	1	/	1.9	11%
Cc1nc2c(cc1C(=O)N/N=C/c1ccc([N+](=O)[O-])cc1)c(=O)n(C)c(=O)n2C	7	-13	-44	-0.4	1%
N#Cc1c(N)nc2c(c1-c1ccncc1)CCCCCC2	2	/	-20	0.1	-7%
Cc1ccc(S(=O)(=O)N2CCOCC2)cc1C(=O)OCC(=O)N1c2ccccc2NC(=O)C1(C)C	/	-5	4	/	-1%
CC(C)[C@H](NC(=O)c1ccccc1F)C(=O)Nc1nc2c(s1)CCCC2	2	8	-26	6.0	10%
C[C@H](NC(=O)[C@@H]1Cc2ccccc2CN1)C(=O)Nc1ccc2c(c1)OCCO2	-3	/	/	11	/
COc1cc(OC)c2c(N)c(C#N)c(C(F)(F)C(F)(F)F)nc2c1	-4	16	3	-1.6	7%
COc1ccc2oc(=N)c(-c3nnc4n3CCCCC4)cc2c1	-3	3	-11	-17	-6%
CC(C)C(c1nnnn1C1CCCC1)N1CCOCC1 (configuration not stated)	-9	9	-20	2.2	-6%
C[n+]1ccc(-c2ccccc2)c2ccccc21	-1	/	/	0.5	/
Cc1c(C(=O)N2CCCC2)oc2c1-c1nn(CC(=O)NCCCN3CCCCC3)cc1CC2	-2	/	/	-0.8	/
CCc1ccc(OCCCOc2ccc(C=O)cc2)cc1	27	16	-19	/	10%
c1ccc(CCNc2nc3ccccc3s2)cc1	3	0	-17	4.4	12%
CCOc1ccc(C(=O)OCn2nnc3ccccc3c2=O)cc1OC	2	2	-36	0.4	-4%
O=C(Nc1ccc(N2CCN(C(=O)c3ccco3)CC2)c(Cl)c1)c1cccs1	-2	-35	-28	6.6	14%
CCOc1ccc(NC(=O)CCSc2nc3c(c(CC)c2C#N)C(=O)CC(C)(C)C3)cc1	-17	-2	-18	-2.0	-9%
CCc1c(O)nc(SCC(=O)N(CC)CC)[nH]c1=O	-7	0	/	-0.5	7%
Cc1cc(OC(=O)c2cccc([N+](=O)[O-])c2)c(C)cc1CN1CCOCC1	97	/	/	0.7	/
N#Cc1ccc(CSCC(=O)NN=C2CCCC2)cc1	-7	-1	/	2.1	0%
Cc1ccc(/C(O)=C2\C(=O)C(=O)N(CCN(C)C)C2c2ccccc2F)cc1 (configuration not stated)	-1	3	-34	0.3	-8%	Arbovirus anti repeat=4
O=C(NCc1ccccc1Cl)C(=O)c1cn(CC(=O)N2CCOCC2)c2ccccc12	-4	/	/	-1.8	/
O=C(Nc1ccc(F)cc1F)N1CCCCC1c1cccnc1 (configuration not stated)	3	3	-35	4.2	-10%
Cc1cc(C)nc(NS(=O)(=O)c2ccc(NC(=S)NC(=O)c3ccco3)cc2)n1	4	-5	/	1.5	2%
COc1ccc(Oc2c(C)oc3c(CN4CCOCC4)c(O)ccc3c2=O)cc1	-6	9	-12	0.5	-6%
CSCCC(=O)N1CCCC(CO)(CCCc2ccccc2)C1 (configuration not stated)	-2	/	/	1.1	/
COc1cccc([C@@H]2Oc3ccc(OC)cc3C(=O)[C@H]2OC(=O)Nc2cc(OC)c(OC)c(OC)c2)c1	-8	5	-8	/	4%
CCCCCn1c(=O)[nH]c2cc(C(=O)Nc3ccc(OC)cc3)ccc2c1=O	-1	/	/	-0.5	/
O=c1c2ccccc2n(Cc2ccc(Cl)cc2)c(=O)n1Cc1ccco1	0	0	-2	-1.2	0%
Cc1cc(Cl)ccc1OCC(=O)NCCCCc1ccccc1	1	18	-18	2.4	7%
COc1ccc(C)cc1-n1c(SCC(=O)Nc2cccc(C(=O)O)c2)nc2ccccc2c1=O	0	/	/	4.4	-7%
CCOC(=O)c1c(C)[nH]c(C)c1S(=O)(=O)NC(CC)CN1CCOCC1 (configuration not stated)	-5	/	/	-5.0	/
O=C(Cn1c2ccccc2c(=O)c2ccccc21)N/N=C/c1cc([N+](=O)[O-])ccc1N1CCCCCC1	5	-13	-32	-1.3	-6%
O=C(N/N=C/c1cccc([N+](=O)[O-])c1)c1cnccn1	-4	-5	-23	1.2	0%
COc1ccc2c(c1)C(=NN)c1cc(OC)ccc1-2	-1	-13	-1	2.5	4%
O=C(Nc1ccc(Br)c(Cl)c1)c1ccco1	45	9	16	5.6	60%
O=C(Cc1c(Cl)cccc1Cl)OCC(=O)N1CCN(C(=O)c2ccco2)CC1	1	5	/	0.6	7%
CCOc1ccc(-c2nnc(NC(=O)Cc3ccc(OC)cc3)o2)cc1	90	/	/	0.8	/
COc1ccc(Nc2cc(=O)n(-c3ccccc3)c3c2c(=O)n(C)c(=O)n3C)cc1	-9	/	/	-2.6	-9%
CSc1ccccc1Sc1cc(C(=O)O)c2ccccc2n1	6	0	-35	1.0	3%
O=C(C1CC(c2cccc(Br)c2)=NO1)N1CCc2ccccc2C1 (configuration not stated)	3	4	7	8.3	-8%
CCOc1ccc(NS(=O)(=O)c2cc(NC(=O)c3ccc(C)cc3)ccc2Cl)cc1	-2	-1	-29	3.4	12%
COc1ccc(NC(=O)Cn2cnc3sc(C)c(S(=O)(=O)N4CCOCC4)c3c2=O)cc1Cl	-2	/	/	-7.6	/
Cc1nc2ccccc2c(=O)n1-c1ccccc1C(F)(F)F	-1	14	-17	0.1	-3%
CCOc1ccc(OCCCCN(C)C)cc1	-10	-8	-21	-1.4	-8%	Arbovirus anti repeat=-3
CC1(C)CNC(=O)c2sc(NC(=O)c3ccccc3Cl)nc2C1	14	-7	/	0.3	0%
CC(=O)c1ccc(N(C(=O)Cc2c[nH]c3ccccc23)C(C(=O)NC2CCCCC2)c2cccs2)cc1 (configuration not stated)	13	-14	-17	0.9	-5%
Cc1ccccc1N(CC(=O)NC1CCCCC1)C(=O)CCC(=O)Nc1nccs1	-4	/	/	-3.2	/
O=C(NCc1ccco1)C(c1ccccc1F)N(CC1CCCO1)C(=O)Cn1nnc2ccccc21 (configuration not stated)	-5	7	-8	-0.6	0%
O=C(CN1C(=O)/C(=C2\SC(=S)N(CCS(=O)(=O)O)C2=O)c2ccccc21)Nc1cccc(Br)c1	1	/	/	46*	/
Cn1cc(CNC(=O)C2CCC(=O)N(Cc3ccc(Cl)cc3)C2)cn1 (configuration not stated)	5	/	/	-1.4	/
CC1=CC2=NC(=O)CC(C)(C(=O)N(CC(=O)NC3CCCC3)c3ccccc3F)N2C=C1 (configuration not stated)	-2	/	/	1.5	/
C=CCOc1ccccc1CNCCc1ccc(S(N)(=O)=O)cc1	0	-5	/	-0.8	0%
CSc1ncc(Cl)c(C(=O)Nc2ccccc2C)n1	2	/	/	0.7	/
O=C(N/N=C/c1ccc(OC(=O)c2ccc3c(c2)OCO3)cc1)c1cncc(Br)c1	/	-1	-37	-1.6	58%
C/C(=N/NC(=O)c1ccc(Br)o1)C(C)C	10	-6	-22	-11	-7%
CCCc1cc(C(=O)NC(C)C2CCCO2)cs1 (configuration not stated)	8	/	/	0.9	/

Of the compounds above, 7 have an NH in an aromatic ring.
SMILES	Mtb bLac sens	Arbovirus anti	YopH inh	RecA intein inh	Mtb H37Rv	others
CCOCCCNC(=O)c1[nH]c(C)c(C(C)=O)c1C	-5	1	-25	2.1	-10%
CN(C)CCN(Cc1ccco1)S(=O)(=O)c1ccc(-c2ccc(=O)[nH]n2)s1	4	/	/	1.6	/
Cc1cc(C)n(-c2c(C)[nH]c3ccccc23)n1	-1	1	/	1.9	11%
CCc1c(O)nc(SCC(=O)N(CC)CC)[nH]c1=O	-7	0	/	-0.5	7%
CCCCCn1c(=O)[nH]c2cc(C(=O)Nc3ccc(OC)cc3)ccc2c1=O	-1	/	/	-0.5	/
CCOC(=O)c1c(C)[nH]c(C)c1S(=O)(=O)NC(CC)CN1CCOCC1 (configuration not stated)	-5	/	/	-5.0	/
CC(=O)c1ccc(N(C(=O)Cc2c[nH]c3ccccc23)C(C(=O)NC2CCCCC2)c2cccs2)cc1 (configuration not stated)	13	-14	-17	0.9	-5%

The list continues:
SMILES	Mtb bLac sens	Arbovirus anti	YopH inh	RecA intein inh	Mtb H37Rv	others
O=C(O)c1ccccc1C(=O)NCCc1c(C(=O)O)[nH]c2ccc(F)cc12	-9	/	/	1.3	-5%
COc1ccc(/C=C2\C(=O)NCC(=O)N2C)cc1	0	/	/	1.8	/
COC(=O)c1cc(C(=O)OC)cc(N2C(=O)CC(N3CCN(c4ccccc4)CC3)C2=O)c1 (configuration not stated)	/	2	7	11	-5%
Cc1nn(-c2ccc(F)cc2)c2sc(C(=O)OC3CCOC3=O)cc12 (configuration not stated)	4	11	-5	-4.5	-1%
COc1ccccc1CNc1cncnc1	-1	/	/	1.5	/
COCCN(C)Cc1cn(-c2ccc(F)cc2F)nc1-c1ccccc1C	5	1	/	1.2	-16%
CCn1c(SCC(=O)Nc2nc3ccccc3s2)nc2c(c1=O)SC(C)C2 (configuration not stated)	-7	-1	-51	8.6	7%
O=C(c1ccc(F)cc1)C1CCN(C(=S)Nc2ccccc2Cl)CC1	-5	18	/	-1.8	1%
Cc1ccc(C(C)C)c(OCc2nn(CC(=O)c3ccc(OC(F)F)cc3)c3[n+]2CCCCC3)c1	100	-33	/	16	1.1µM*
CCC1=Nc2cc(C(=O)NCCCN3CCOCC3)ccc2Sc2ccccc21	-1	/	/	-0.7	/
CN(Cc1cn(C)nc1-c1ccc(Oc2ccccc2)cc1)CC1COCCO1 (configuration not stated)	-4	-6	/	1.9	8%
CS(=O)(=O)N(CC(=O)NCCSCc1c(F)cccc1Cl)c1cccc([N+](=O)[O-])c1	-2	4	/	-4.2	19%
O=C(CCC(=O)NC1CCCCC1)NCc1ccc(F)cc1	1	/	/	-0.3	/
COCCN1C(=O)C(O)=C(C(C)=O)C1c1ccc(OC)c(OC)c1 (configuration not stated)	4	3	-29	-0.7	-4%
COCC(=O)N1CCC(Oc2ccc(C(=O)N(C)Cc3nccs3)cc2)CC1	-11	/	/	-0.2	/
O=C(NCC1OCCc2ccccc21)C1COc2ccccc2O1 (configuration not stated)	0	13	/	0.0	9%
Cc1cc(C)cc(OCC(=O)Nc2ccc(N3CCCC3)cc2)c1	75	-4	-5	-0.3	11%
CSc1ncccc1C(=O)Nc1cccc(C)n1	8	/	/	1.6	/
CON(c1nc(N(C)C)nc(N(C)C)n1)S(=O)(=O)c1ccccc1Cl	-2	0	-143	-2.1	-2%
CCOC(=O)C(=O)Nc1nnc(SCc2ccc(F)cc2)s1	-8	-4	-13	0.4	-4%
COc1ccc(CNC(=O)c2n[nH]c3ccccc23)cc1OC	-4	-3	/	0.2	-1%
Cc1[nH]cnc1CSCc1ccc(Cl)cc1	-2	11	-21	-0.1	18%
CC1Cc2ccccc2N1CC(=O)NC(=O)NCc1ccco1 (configuration not stated)	6	18	-111	2.4	-19%
CC(=O)c1ccc(Oc2cc(-c3ccccc3)nc(-c3ccccc3)n2)cc1	10	-9	-11	2.1	21%
N#C/C(=C\C=C\c1ccccc1)C(=O)NCc1ccco1	-5	10	/	-3.5	2%
O=C(NCCc1ccccc1)C1CCCN1C(=O)Nc1cccc(Cl)c1 (configuration not stated)	-10	/	/	-2.4	/
Cc1ccc2c(c1)C(c1ccncc1)=NNC(c1cccnc1)=N2	-2	13	/	-7.8	-4%
Cc1ccc(C(=O)c2cc([N+](=O)[O-])ccc2N2CCN(C)CC2)cc1	-4	-13	-30	-1.5	-8%
O=C(CN(Cc1ccco1)C(=O)c1cc(=O)[nH]c2ccccc12)Nc1ccccc1C(F)(F)F	-1	0	-24	0.6	-3%
CCC(C)(C)NC(=O)CN(C(=O)C(=O)Nc1ccc2c(c1)OCCO2)N1CCOCC1	2	/	/	-0.8	/
COc1ccc(-n2ncc3c(N4CCC(C)CC4)ncnc32)cc1	59	-5	/	-3.9	/	Arbovirus anti repeat=-1
O=c1nc2n(Cc3ccccc3)c3ccccc3cc-2c(=O)[nH]1	-10	5	-29	-2.9	-3%

Reprinted at random: two compounds from above.
SMILES	Mtb bLac sens	Arbovirus anti	YopH inh	RecA intein inh	Mtb H37Rv	others
C/C(=N/NC(=O)c1ccc(Br)o1)C(C)C	10	-6	-22	-11	-7%
O=C(Nc1ccc(Br)c(Cl)c1)c1ccco1	45	9	16	5.6	60%

Not all compounds are listed; the hit share may differ from the screen's.
